AID923: qHTS Assay for Allosteric/Competitive Inhibitors of Caspase-1: Spectroscopic Profiling in AFC Spectral Region; compound fluorescence, AFC spectral region (405/520 nm); almost no hit is shown here; Potency, µM (series often up to 57.5 µM), inactives show at the highest dose fluorescence increase, usual class: activators; hit rate 1.1% among 75,000; AID 923, 2007; active = well fitted activation curve with a large enough effect; inconclusive = small, poorly fitted or top-dose-only effect;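 note: potency is the fitted concentration of half-maximal effect; 0% is about no effect; scaled to a free AFC standard on each plate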
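Titrations up to 57 uM read every 20 sec for 3 min (405/520 nm) with 50 nM caspase 1 and 5 uM Ac-WEHD-AFC, pH 7.5 HEPES buffer. Fluorescence-vs-time intercept gave baseline, scaled against on-plate AFC standard.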
Resorufin fluor: compound fluoresces in the resorufin spectral region; Compound fluorescence, resorufin region 547/598 nm, buffer; hits give high values; max dye-equivalent concentration, M; hit rate 0.04% among 59,000; active = above 10 nM dye equivalent; inconclusive = 1 to 10 nM; inactive = 1 nM or less; a few of its hits are not listed in these tables; note: highest value over a series up to 38 µM
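Dye-equivalent concentration values derive from comparing each well's 547/598 nm fluorescence against resorufin standards included on every plate. Incubation was 15 min at room temperature in 100 mM Tris, pH 8.0.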
A488 autofl: compound autofluorescence in A488 spectral region. compound autofluorescence, A488 spectral region, dye equivalency; hits give high values. max dye equivalency, M. hit rate 0.1% among 59,000. AID 591; active = above 10 nM dye equivalent; inconclusive = 1 to 10 nM; inactive = 1 nM or less; about half of its hits are not listed in these tables;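 note: highest value over a series up to 38 µM; compound alone in buffer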
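Read-out: relative fluorescence at 480/540 nm, expressed as Alexa 488 dye-equivalent concentration from a six-point A488 standard included per plate. Conditions: 100 mM Tris, pH 8.0; 15 min incubation, room temperature.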
TSHR agonist: agonists of human thyroid stimulating hormone receptor | P16473 | HEK293-CNG-TSHR cells (CNG channel as cAMP sensor), membrane potential dye, cAMP | Potency, µM (doses to about 57.1 µM), for inactives: at the highest dose activation, hits mostly activators | hit rate 0.48% among 73,000 | AID 926; active = well fitted activation curve of enough size with the parental cells flat; inconclusive = any curve in the parental cells; inactive = parental cells flat and receptor cells flat or falling; note: potency is the fitted concentration of half-maximal effect; % of control where 0% means no effect; weak receptor curves with flat parental cells got no call and are not listed
Target sequence (P16473 whole entry, looked up): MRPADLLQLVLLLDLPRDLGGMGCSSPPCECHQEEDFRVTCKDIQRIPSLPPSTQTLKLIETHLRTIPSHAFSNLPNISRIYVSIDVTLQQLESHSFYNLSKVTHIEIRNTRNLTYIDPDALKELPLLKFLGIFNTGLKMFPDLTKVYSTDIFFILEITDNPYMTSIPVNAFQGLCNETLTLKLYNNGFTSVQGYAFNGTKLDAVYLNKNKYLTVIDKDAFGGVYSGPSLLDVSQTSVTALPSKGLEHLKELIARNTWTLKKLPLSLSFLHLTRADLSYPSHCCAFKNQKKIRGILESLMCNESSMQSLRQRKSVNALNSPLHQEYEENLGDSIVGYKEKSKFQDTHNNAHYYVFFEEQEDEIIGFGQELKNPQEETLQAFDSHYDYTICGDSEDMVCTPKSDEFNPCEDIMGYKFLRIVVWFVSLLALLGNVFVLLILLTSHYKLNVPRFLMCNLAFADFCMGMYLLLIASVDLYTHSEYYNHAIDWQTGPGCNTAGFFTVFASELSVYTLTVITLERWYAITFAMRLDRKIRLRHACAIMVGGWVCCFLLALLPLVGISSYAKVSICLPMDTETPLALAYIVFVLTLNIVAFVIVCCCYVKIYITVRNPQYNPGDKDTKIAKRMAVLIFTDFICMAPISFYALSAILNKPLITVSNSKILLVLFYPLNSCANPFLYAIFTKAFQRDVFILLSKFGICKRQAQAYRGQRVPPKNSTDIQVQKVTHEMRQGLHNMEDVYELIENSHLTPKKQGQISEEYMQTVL
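HEK 293 cells stably expressing TSHR and a modified CNG channel, with CNG-only parental cells as counterscreen, were preloaded 60 min at room temperature with membrane potential dye containing 100 uM RO 20-1724. Compound exposure was 30 min, and depolarization was read as fluorescence at 590 nm.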
A647 autofl: A647 region autofluorescence; 59,000 tested, under 10 active; AID 592; max dye-equivalent concentration, M; Compound fluorescence, A647 channel (570/671 nm), Tris buffer; active means above 1 µM dye equivalent; inconclusive means 0.1 to 1 µM; inactive means 0.1 µM or less;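 note: values scaled relative to a standard on each plate; highest value over a series up to 38 µM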
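Buffer was dispensed, compounds and Alexa 647 standards were pin-transferred, and plates sat 15 min at room temperature. Intensity at 570/671 nm was then converted to dye-equivalent concentration using the plate's A647 standard curve.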
Active calls of the source: *; i = inactive; ? = inconclusive; / = no result given; & = joins results of further samples; [ ] = dose if it differs, or a comment.

SMILES | AID923 | Resorufin fluor | A488 autofl | TSHR agonist | A647 autofl
COc1ccc(-c2ccc(-c3noc(-c4ccncc4)n3)c(OC)n2)cc1 | 4.7% | i | i | ? | 4.3e-09
COc1ccccc1Nc1nc2c(s1)CCC2 | 0.8% | i | i | 8% | 2.8e-08
CCOc1ccc(OCc2ccc(C(=O)Nc3cccc(C)n3)o2)cc1 | 5.9% | i | i | 37% | 1.9e-09
CC(C)NC(=O)CCNS(=O)(=O)c1ccc(Br)cc1 | -0.5% | i | i | 3% | 8.9e-09
CCOC(=O)N1CCN(c2ccc(C(=O)CC)cc2F)CC1 | 4.3% | / | / | 14% | /
CCOC(=O)N1CCN(C(=O)Nc2ccc3nc(C)sc3c2)CC1 | 1.6% | i | i | / | 4e-09
C[C@@](N)(C(=O)O)c1ccc(C(=O)O)cc1 | 4.1%&-2.2% | i | i | ? | 1e-08
CCN(CC)CCCN1C(=O)C(=O)/C(=C(/O)c2ccc(OC)c(Cl)c2)C1c1ccco1 (stereo not drawn) | 1.2% | i | i | -1% | 2.7e-08
CCN(C(=O)CCc1nc(-c2ccccc2F)no1)c1cc(OC)ccc1OC | -1.4% | i | i | ? | 1.9e-08
Cc1nnc(SCC(=O)NCc2ccco2)[nH]c1=O | 1.7% | i | i | 4% | 5.5e-09
O=C(Cn1nnc(-c2ccccc2F)n1)Nc1ccc2c(c1)OCO2 | -0.4% | i | i | 0% | 1e-09
CC(n1cnnn1)C12CC3CC(CC(C3)C1)C2 (stereo not drawn) | 0.4% | i | i | 13% | 3.6e-09
Cc1cccc(/N=C/c2c(O)c3ccccc3oc2=O)n1 | -3.4% | i | i | 4% | 3.3e-09
c1ccc(COc2ccc(OCCn3cncn3)cc2)cc1 | -0.4% | i | i | -2% | 1e-09
CCC(c1nnc(SCC(=O)NCC2CCCO2)n1Cc1ccccc1)N(C)C (stereo not drawn) | -0.5% | i | i | 1% | 1e-09
COc1ccc2nc(C)cc(C(=O)O)c2c1 | -4.1% | i | i | -1% | 1.9e-08
CCOc1ccc2[nH]c(=O)c(CN(Cc3nnnn3Cc3ccccc3)CC3CCCO3)cc2c1 (stereo not drawn) | 8.1% | i | i | ? | 1e-09
O=C(O)CCCNS(=O)(=O)c1cccs1 | -0.6% | i | i | ? | 1.6e-09
CCOP(=O)(c1ccc(N(C)C)cc1)C(O)c1ccccc1OC (stereo not drawn) | 0.0% | i | i | 8% | 1.5e-09
COc1ccc(CNC(=O)CCn2c(=O)oc3ccccc32)cc1 | -1.2% | i | i | -3% | 1e-09
CCOC(=O)N1CCN(S(=O)(=O)c2ccc(C(=O)Nc3sc4c(c3C#N)CCC4)cc2)CC1 | 0.5% | i | i | 20%[11.4 µM] | 2.9e-08
COc1ccccc1N1CC(C(=O)OCC(=O)c2ccc(F)cc2)CC1=O (stereo not drawn) | -0.6% | i | i | ? | 9.6e-09
N#CC1=C(N)OC2=C(C(=O)CCC2)C12CCC1(CC2)OCCO1 | 6.2% | i | i | -3% | 3.4e-09
CCOC(=O)c1c(C)oc2ccc(O)c(CN3CCCCC3)c12 | 2.1% | i | i | ? | 1e-09
O=C(Nc1ccc2c(c1)OCCO2)c1ccc(CN2CCOCC2)cc1 | 0.4% | i | i | 2% | 1.6e-09
C[C@@H]1CC2(OC[C@]3(C)O[C@H]23)O[C@H]2C[C@@]3(C)[C@@H]4CC[C@H]5C(C)(C)C(O[C@@H]6OC[C@@H](O)[C@H](O)[C@H]6O)CC[C@@]56C[C@@]46CC[C@]3(C)[C@@H]12 (stereo partly drawn) | 0.9% | / | / | 4% | /
COc1cc2[nH]c(=O)n3nc(-c4ccccc4)nc3c2cc1OC | -0.4% | i | i | -3% | 2.3e-08
N#Cc1ccc(CN2CCC3(CC2)CCN(S(=O)(=O)c2ccccc2)CC3)cc1 | 3.6% | i | i | 7% | 6.9e-09
O=C(COc1ncnc2ccccc12)NCCCN1CCCC1=O | 1.3% | i | i | -1% | 4e-08
COc1cc(NC2=CC(=O)CC(C)(C)C2)cc(OC)c1OC | / | i | i | / | 7.4e-08
CC(=O)NC1C(=O)N=C(SCC(=O)NCc2ccccc2)NC1=O (stereo not drawn) | 0.2% | i | i | -5% | 1.4e-08
Cc1onc(-c2ccccc2Cl)c1C(=O)Nc1ccc(CN2CCCC2)cc1 | 0.2% | i | i | 6% | 2.8e-09
Cc1c(NC(=O)Cn2cnc3c(=O)n(C)c(=O)n(C)c32)cccc1-c1nc2ccccc2o1 | 0.5% | i | i | 10% | 7.9e-09
CCCc1ccc(Oc2cn[nH]c2-c2ccc(O)cc2O)cc1 | -2.7% | / | / | -13%[11.4 µM] | /
Cc1c(Br)cc(-c2nnco2)cc1Br | -0.4% | / | / | ? | /
COc1ccc(S(=O)(=O)N2CCC(C(=O)N3CCOCC3)CC2)cc1OC | 0.3% | / | / | -3% | /
Cc1cccc(C)c1N1C(=O)C2ON(c3ccccc3)C(c3ccncc3)C2C1=O (stereo not drawn) | / | i | i | / | 3.9e-09
CCOc1ncccc1C(=O)OCc1cc(=O)n2c(n1)sc1ccccc12 | -2.0% | i | i | 6% | 2.9e-08
Cn1ncc2c1ncn1c(-c3ccccc3Cl)nnc21 | 0.2% | i | i | -1% | 2.5e-09
COc1ccc(-c2nc3ccccc3c(=O)n2CCCn2ccnc2)cc1 | -1.2% | i | i | ? | 2.5e-09
Cc1ccc(C2C(C#N)=C(N)Oc3cc4c(cc32)OCO4)cc1 (stereo not drawn) | 9.8% | i | i | / | 1e-09
CCOC(=O)c1c(C)c(C(=O)N(C)C2CCCCC2)c(C)n1C | -0.4% | i | i | ? | 3e-09
CCn1c(=N)n(CCOc2ccc(OC)cc2)c2ccccc21 | -0.7% | i | i | 8% | 1.2e-08
CCOC(=O)c1ccccc1NC(=O)c1ccc(NS(C)(=O)=O)cc1 | -1.9% | i | i | 1% | 1e-09
O=C(c1ccccc1F)N1CCN(c2ccccc2F)CC1 | 1.5% | i | i | -3% | 1e-09
Cc1cc(NC(=O)CSc2nnc(-c3ccoc3C)o2)no1 | -0.4% | i | i | 8% | 4.4e-08
O=C(c1ccc(Cl)s1)N1CCN(c2ccccc2)CC1 | 3.0% | / | / | 1% | /
Cc1occc(=O)c1OC(=O)Nc1ccccc1 | / | i | i | / | 9.8e-09
CCC(C)C1C(C#N)=C(N)Oc2n[nH]c(C)c21 (stereo not drawn) | -2.0% | / | / | -7% | /
O=C1NC(=O)[C@@](Cc2ccccc2)(c2cccnc2)N1 | -0.9%[11.5 µM] | i | i | -1%[11.4 µM] | 1.6e-08

(next part)
SMILES | AID923 | Resorufin fluor | A488 autofl | TSHR agonist | A647 autofl
O=C(CSc1nc2ccccc2c(=O)n1-c1ccccc1)NCc1ccco1 | -1.4% | i | i | ? | 5.4e-09
CCN1CCN(C(c2ccc(F)cc2)c2nnnn2Cc2cccs2)CC1 (stereo not drawn) | -0.3% | i | i | 6% | 6.6e-09
O=C(Nc1ccccc1)Nc1nncs1 | -0.1% | i | i | 0% | 5.3e-09
COc1ccc(-c2cc(-c3cccs3)c(C#N)c(SCC(=O)NCc3ccco3)n2)cc1 | 4.3% | i | i | -3% | 1e-09
Cc1noc(C)c1CSc1ncnc2sc(C)c(C)c12 | 2.1% | i | i | 4%[11.4 µM] | 6.7e-09
CCn1cc(C(=O)NCC2CCCO2)c(=O)c2cc(S(=O)(=O)N3CCCCC3)ccc21 (stereo not drawn) | -1.4% | i | i | -2%[11.4 µM] | 3.6e-08
CCCCSc1nnc(-c2ccc(NC(=O)CC)cc2)n1C | -3.7% | i | i | 1% | 1.9e-08
COc1cccc(C(O)CC(N)=O)c1 (stereo not drawn) | -2.5% | i | i | 1% | 1e-09
O=C(NC1CC1)c1ccc2c(c1)ncn2C1CCCC1 | -1.0% | i | i | 3% | 5.9e-09
CCN1C(=O)c2ccccc2S(=O)c2ccc(C(=O)NC3CC3)cc21 (stereo not drawn) | -2.9% | / | / | -1% | /
CCC(C)(C)n1nnnc1C(c1cccnc1)N1CCCc2ccccc21 (stereo not drawn) | 1.2% | i | i | -2% | 1.9e-09
O=C(NC1CCCC1)c1ccc(Br)s1 | -0.4% | / | / | 14% | /
COc1ccc(-c2nnn(CC(=O)NC3CCCc4ccccc43)n2)cc1OC (stereo not drawn) | 0.1% | i | i | 18% | 3.1e-08
O=C(NCc1ccco1)C1CCCN(S(=O)(=O)c2cccc3nsnc23)C1 (stereo not drawn) | 0.3% | i | i | 3%[11.4 µM] | 3.5e-08
COC(=O)Cn1c(=O)sc2ccccc21 | -1.8% | i | i | 8% | 1.1e-08
CC1CN(Cc2nc3c(c(=O)n(C)c(=O)n3C)n2CC(=O)c2ccccc2)CC(C)O1 (stereo not drawn) | -0.2% | i | i | ? | 1.4e-08
O=C(O)Cc1ccc(C(=O)c2cccs2)s1 | 0.4% | i | i | 5% | 2.6e-09
O=S(=O)(O)c1ccc(O)c2ncccc12.O=S(=O)(O)c1ccc(O)c2ncccc12.[Zn] | 6.5%[11.5 µM] | i | i | -1%[11.4 µM] | 1e-09
COC(=O)Nc1nnc(CC(=O)Nc2ccccc2C)s1 | -0.4% | i | i | 17% | 2.4e-08
COc1ccc(C(=O)COC(=O)Cn2nnc3ccccc32)cc1Br | 1.7% | i | i | 0% | 7.2e-09
CCOC(=O)N1CCN(c2c(F)cc3[nH]c(=S)[nH]c3c2Br)CC1 | -1.5% | i | i | 20% | 4.7e-09
O=C(C(c1ccccc1)c1ccccc1)N1CCN(Cc2ccccn2)CC1 | 5.5% | / | / | 4% | /
CC(=O)NC12CC3CC(C1)CC(C(=O)OCC(=O)c1ccc4c(c1)OCCO4)(C3)C2 | -1.4% | i | i | 11% | 1e-09
COc1ccccc1N1CCN(c2cc(=O)n(Cc3ccc(F)cc3)c(=O)[nH]2)CC1 | 0.1% | / | / | 3% | /
CN(C)Cc1ccccc1-c1ccc2ncnc(N(C)C)c2c1 | -1.1% | i | i | 19% | 1e-09
CC(C)c1nnc(SCC(=O)NCc2ccco2)n1C | 5.5% | i | i | -4% | 3.3e-08
CCOC(=O)Cc1csc(NC(=O)CCS(=O)(=O)Cc2ccccc2)n1 | -0.8% | i | i | 3% | 3.2e-08
O=C(NCCOC(=O)c1ccc(S(=O)(=O)N2CCOCC2)cc1)c1cccnc1 | 0.0% | i | i | ? | 1e-08
COc1ccc2[nH]c(=O)c(CN(Cc3ccco3)C(=O)c3ccccc3)cc2c1 | 5.0% | i | i | 1% | 3.1e-08
CCC(C)C1C(C#N)=C(N)Oc2n[nH]c(-c3ccccc3)c21 (stereo not drawn) | -4.4% | / | / | ? | /

Source: PubChem

An excerpt; count on the stated rates, not on these rows.
